High-throughput results (PubChem BioAssay)
HTT prom inh – HTT promoter inhibition; HEK293 HTT promoter firefly luciferase reporter (activity 0% = vehicle and -100% = no light), 24 h; Potency, µM (titrated, usually from 57.5 µM), inactives show at the highest dose activity change, negative = inhibition, most hits filed as inhibitors; actives 0.93% (n = 48,000); AID 1508623; active = well fitted inhibition curve with a large enough effect; inconclusive = small, poorly fitted or top-dose-only effect; inactive = no such curve, though single readings can be large or run the other way; also: nearly all actives have a fitted effect of over 50% in size
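Firefly luciferase signal from promoter-reporter HEK293 cells was scaled between vehicle (0%) and zero RLU (-100%). Compounds were tested at final concentrations of up to 57.5 uM over 24 h at 37 degrees C. PTC124 at 50 uM final served as control inhibitor.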
PMP22 txn – modulators of PMP22 gene transcription in S16 Schwann cells; S16 Pmp22-F2sN Schwann cells (luciferase reporters placed in the Pmp22 gene), FLuc/NLuc coincidence luminescence, 24 h; actives 2% (n = 43,000); AID 1508649; Potency, µM (top dose mostly 57.5 µM), inactives show at the top dose activity change, negative = inhibition, most hits filed as inhibitors; active = clear falling dose curves in both reporters; inconclusive = both reporters move, but less clearly or upward; inactive = either reporter flat; the % is the NLuc reporter signal; also: % is scaled to controls: 0 for no effect and ±100 for the full control effect; some results filed as inactive show a strong effect at the top dose
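Rat S16 Pmp22-F2sN cells, 500-1,000/well in phenol red-free DMEM + 10% FBS, compound-treated 24 h (37C, 5% CO2). Luminescence: FLuc read, Stop&Glo added, NLuc read.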
Numbers without * were called inactive; ? = inconclusive; . = no result given; [ ] = remark or other dose. Potency is read from the fitted curve at half-maximal effect. Random draw from the library; about 2.4% have a hit in one of these screens.

SMILES	HTT prom inh	PMP22 txn
Clc1cccc(N2CCN(c3c4c(nc5nncn35)CCC4)CC2)c1	?	?
CCC(=O)N1CCc2cc(Br)cc(S(=O)(=O)CCC(=O)N3CCN(c4ccccc4OC)CC3)c21	-19%	-9%
COc1ccc(NC(=O)C(C)Sc2cc(-c3ccccc3)nc(C)n2)cc1Cl (stereo not given)	-34%	-24%
COC(=O)c1cc(NS(=O)(=O)c2ccc3c(c2)OCCO3)ccc1Cl	?	?
CCCC(=O)NCCc1nc2ccccc2n1Cc1c(F)cccc1Cl	-24%	?
CCOC(=O)c1ccccc1NC(=O)Cn1c(=O)n(CCC(=O)N2CCc3ccccc3C2)c(=O)c2ccccc21	-20%	?
CC(Oc1ccccc1)C(=O)Nc1ccc(C(=O)OCc2cc(=O)n3nc(C(C)C)sc3n2)cc1 (stereo not given)	3%	?
COc1ccc2occ(CC(=O)Nc3ccc(S(=O)(=O)Nc4nccc(C)n4)cc3)c2c1	-16%	?
N#Cc1c(C(F)(F)F)cc(-c2cccs2)nc1SCC(=O)Nc1ccccc1F	-25%	?
Cc1ccc(NC(=O)/C(C#N)=C/c2ccc(C)o2)cc1	92%[activator]	-1%
CCNC(=O)CCCC=CC[C@@H]1[C@H](C=CC(O)CCc2ccccc2)[C@@H](O)C[C@@H]1O (stereo not given in full)	-7%	.
COc1ccc(-c2oc3ncn4nc(-c5ccccc5OC)nc4c3c2-c2ccc(OC)cc2)cc1	-19%	8%

Grouped by structure, those above with a Cl atom
SMILES	HTT prom inh	PMP22 txn
Clc1cccc(N2CCN(c3c4c(nc5nncn35)CCC4)CC2)c1	?	?
COc1ccc(NC(=O)C(C)Sc2cc(-c3ccccc3)nc(C)n2)cc1Cl (stereo not given)	-34%	-24%
COC(=O)c1cc(NS(=O)(=O)c2ccc3c(c2)OCCO3)ccc1Cl	?	?
CCCC(=O)NCCc1nc2ccccc2n1Cc1c(F)cccc1Cl	-24%	?

(listing goes on)
SMILES	HTT prom inh	PMP22 txn
CCOc1ccc(CNC(=O)c2ccc3c(c2)nc2n3CCOC2)cc1	30%[activator]	-11%
CCOc1cccc2cc(-c3nc(-c4ccccc4C)no3)c(=O)oc12	46%[activator]	-22%
Cc1ccc(NC(=O)C2CCCN2S(=O)(=O)c2cccc3nsnc23)c(C)c1 (stereo not given)	?	-12%
Cc1ccc(Cl)c(Nc2ccccc2C(=O)O)c1Cl	-1%	.
COc1ccccc1CNC(=O)c1ccc(N2CCCC2)c(NC(=O)NCCC(C)C)c1	-24%	7%
Cc1ccc(Cl)cc1Nc1sc(C(=O)c2ccc(F)cc2)c(N)c1S(C)(=O)=O	?	-14%
CC(=O)c1ccc(NC(=O)CC2Nc3cccc4cccc(c34)NC2=O)cc1 (stereo not given)	-28%	?
Cc1ccc(CNS(=O)(=O)c2ccc(F)c(C(=O)Nc3ccc(C)c(F)c3)c2)cc1	-22%	-78%
CN(C)C(=O)c1ccc(S(=O)(=O)NCc2ccccc2Cl)s1	-12%	131%
Cn1cc(S(=O)(=O)c2ccccc2)c(=O)c2cc(F)c(N3CCCC3)cc21	-3%	-5%
COc1ccc(CNC(=O)c2cc(-c3ccc(C)c(C)c3)n[nH]2)cc1	51%[activator]	15%
Cc1ccn2c(Nc3ccc(F)cc3)c(-c3ccccn3)nc2c1	2%	?
Cc1ccc(N(C)C(=O)c2cnc(N3CCOCC3)c3ccccc23)cc1C	-9%	-2%
COc1ccc(OCC(=O)N(Cc2ccc(C)o2)C2CCS(=O)(=O)C2)cc1 (stereo not given)	-10%	-22%
Cc1ccc(CN2COc3cc(C)c4c(oc(=O)c5ccccc54)c3C2)cc1	-9%	-3%
COc1cccc(NC(=O)CCc2nnc3n(Cc4ccccc4Cl)c(=O)c4ccccc4n23)c1	0%	?
COc1cccc(NC(=O)/C(C#N)=C/c2c(C)n(Cc3ccccc3)c3ccccc23)c1	?	-15%
Cc1ccc(NC(=O)C2CCCN(S(=O)(=O)c3cccc4cccnc34)C2)cc1Cl (stereo not given)	?	-26%
Cc1ccc(NC(=O)Cn2cnc3onc(-c4ccc(F)cc4)c3c2=O)c(Cl)c1	-19%	-15%
CN1CCN(C2(CNC(=O)COc3ccc(C(C)(C)C)cc3)CCCCC2)CC1	-24%	?
CC(C)NC(=O)CCN1C(=O)c2ccccc2Sc2ncccc21	-1%	-1%
CCc1ccccc1N1C(=O)N(CC(=O)c2ccc(OC)cc2)c2ccccc2S1(=O)=O	-19%	8%
Cc1nc(-c2ccc(S(=O)(=O)NCc3ccccc3Cl)cc2)co1	-21%	-40%
CC(C)Oc1ccc(CNC(=O)c2ccc(NC(=O)c3nsc4ccccc34)cc2)cc1	?	?
CCOC(=O)c1sc(N2C(=O)c3oc4ccc(F)cc4c(=O)c3C2c2cccc(OC)c2)nc1C (stereo not given)	8%	-8%
CCc1ccc(CNc2nc3nc(C)c(Cc4ccccc4)c(=O)n3[nH]2)cc1	-17%	3%
Cc1nnc(N2CCN(C(=O)NCCC(C)C)CC2)c2nn(-c3ccc(Cl)cc3)c(C)c12	-17%	1%
CCn1ccc2cc(S(=O)(=O)N3CCCN(C(=O)Nc4ccccc4C(F)(F)F)CC3)ccc21	-28%	-15%
O=C(Nc1ccc2oc(-c3ccc4ccccc4c3)nc2c1)c1cccc(Cl)c1Cl	-6%[11.5 µM]	?
Cc1ccc(S(=O)(=O)c2cn(C)c3cc(N4CCOCC4)c(F)cc3c2=O)c(C)c1	-3%	-3%
CCOc1cc(CNC(=O)CN2CCSc3ccccc32)cc(OCC)c1OCC	?	?
Cc1ccc(Cl)cc1N1CCN(C(=O)Cn2cnc3onc(-c4ccc(F)cc4)c3c2=O)CC1	-21%	?
CCc1ccc(NC(=O)c2cnn(-c3c(C)cccc3C)c2C2CCN(C(=O)OC(C)(C)C)CC2)cc1	?	?
CCN(C(=O)c1cc2c(=O)oc3ccccc3c2s1)c1cccc(C(F)(F)F)c1	-12%	-13%
CCOc1ccccc1CNCc1c(C(=O)O)n(Cc2ccccc2)c2cc(OC)ccc12	-13%	5%
O=S(=O)(c1ccccc1)c1nnn2c1nc(NCc1ccc(Cl)cc1)c1sccc12	0%	10%
CCc1nn(CC(=O)Nc2cccc(C(C)=O)c2)c(=O)c2cc3sccc3n12	-20%	-46%
COc1ccc(-c2cc(C(=O)Oc3ccc(Br)cc3)c3ccccc3n2)cc1	18%	-14%
CCN1CCN(C(=O)Cn2ncc3c4ccccc4n(Cc4c(C)cc(C)cc4C)c3c2=O)CC1	-13%	?
Cc1ccc(CN2C(=O)C(O)(c3c(C)[nH]c4ccccc34)c3ccccc32)cc1 (stereo not given)	-15%	8.2µM*
COc1ccc(C2(CNC(=O)C(=O)Nc3cccc(C(F)(F)F)c3)CCCC2)cc1OC	?	1%
CCc1ccc(N=C2NC(=O)CC(C(=O)Nc3ccc(OC)cc3)S2)cc1 (stereo not given)	-6%[11.5 µM]	-7%
CCC(Cn1nnc2ccccc2c1=O)NC(=O)Nc1cc(C)cc(C)c1 (stereo not given)	-11%	-1%
COc1ccc(-c2nc(C(N)=O)c3c(n2)n(-c2ccccc2OC)c(=O)n3C)c(OC)c1	-13%	-6%
O=S(=O)(NCCS(=O)(=O)N1CCN(c2ccccc2)CC1)c1ccc(Cl)cc1	-19%	2%
Cc1ccc(-c2nnc(Nc3ccc(S(N)(=O)=O)cc3)c3ccccc23)cc1S(=O)(=O)N1CCCCC1	-22%	-12%
O=C(NCCOCCn1c(=O)oc2ccccc21)Nc1ccc(F)cc1	-14%	-24%
COc1ccc(-c2nc3c4cnn(-c5ccccc5F)c4ncn3n2)cc1	11%	13%
Cc1ccccc1CNC(=O)Cn1ncn2nc(-c3cccs3)cc2c1=O	-6%	-15%
COc1ccccc1NC(=O)c1sc(-c2ccc(Cl)cc2)cc1N	-12%	-39%
CCCCN(C)S(=O)(=O)c1cc(-c2nnc3c4ccccc4c(C)nn23)ccc1C	3%	?
CCOc1ccc(CNC(=O)C2CCCN(S(=O)(=O)N(C)c3ccc(F)cc3)C2)cc1OC (stereo not given)	?	?
Cc1cc(NC(=O)n2ncc3c(C)cccc32)ccc1Br	70%[activator]	-10%
Cc1nn(-c2ccc(N3CCOCC3)nn2)c(C)c1CCC(=O)NCc1ccccc1	-12%	-3%
CS(=O)(=O)Nc1ccccc1C(=O)OCc1cc(=O)n2nc(C3CCCCC3)sc2n1	-4%	-6%
CCOc1ccccc1NC(=O)NC(CC)c1c(-n2cccc2)sc2c1CCN(C)C2 (stereo not given)	-12%	?
CC(C)OCCCNC(=O)CCCn1c(=O)[nH]c2ccsc2c1=O	0%	-1%
COCc1c(Br)c(C)nc2sc3c(=O)n(-c4cccc(Br)c4)nnc3c12	-11%	-4%
Cc1ccc(NC(=O)Cn2nc(-c3ccc(Cl)cc3)c3ccccc3c2=O)cc1	-11%	-5%
COc1ccc(-c2cc3nc(C)c(CCC(=O)Nc4ccc(F)cc4F)c(C)n3n2)c(OC)c1	-26%	15%

3 compounds from above, ordered by the number in HTT prom inh, descending.
SMILES | HTT prom inh
Cc1ccccc1CNC(=O)Cn1ncn2nc(-c3cccs3)cc2c1=O | -6%
CN1CCN(C2(CNC(=O)COc3ccc(C(C)(C)C)cc3)CCCCC2)CC1 | -24%
COc1ccc(NC(=O)C(C)Sc2cc(-c3ccccc3)nc(C)n2)cc1Cl (stereo not given) | -34%

Arranged by length of the SMILES (lowest first): 4 of the compounds above
SMILES	HTT prom inh	PMP22 txn
Cc1cc(NC(=O)n2ncc3c(C)cccc32)ccc1Br	70%[activator]	-10%
CC(C)OCCCNC(=O)CCCn1c(=O)[nH]c2ccsc2c1=O	0%	-1%
Cc1ccccc1CNC(=O)Cn1ncn2nc(-c3cccs3)cc2c1=O	-6%	-15%
Cc1ccc(NC(=O)Cn2nc(-c3ccc(Cl)cc3)c3ccccc3c2=O)cc1	-11%	-5%

Other records.
SMILES	HTT prom inh	PMP22 txn
COc1ccc(N2CCN(Cc3nc(-c4ccc(C)cc4)no3)CC2)cc1	-24%	-22%
Cc1ccc2c(CC(=O)Nc3cc(C(F)(F)F)ccc3Cl)coc2c1C	-8%	-13%
CCOc1cc(CNC(=O)c2cc(-c3ccccc3)n[nH]2)cc(OCC)c1OCC	-10%	32%
Cc1ccc(S(=O)(=O)N(CC(=O)NCCc2ccc(Cl)cc2)c2ccccc2C)cc1	?	?
Cc1ccc(CNc2nc3ccc(C)cc3n3nnnc23)cc1	-7%	-10%
COCCN1C(=O)c2[nH]nc(-c3c(C)cc(C)cc3O)c2C1c1cccc(O)c1 (stereo not given)	?	?
CCn1cc(C(=O)O)c(=O)c2cc(F)c(N3CCN(C)CC3)cc21	3%	.
NS(=O)(=O)c1cccc2c1C(=O)c1cccc(O)c1C2=O	?	.
CN(C)c1ccc2cc(C(=O)N[C@@H](CCCN=C(N)CCl)C(=O)NCc3ccccc3)ccc2c1	-10%	.
CCOC(=O)C(Cc1ccccc1)NC(=O)CCc1c(C)nc2nc(C)nn2c1C (stereo not given)	4%	-5%
O=S(=O)(NCCc1nnc2ccc(SCc3c(F)cccc3Cl)nn12)c1ccccc1	?	?
O=C(Nc1nc2c(F)cccc2s1)c1ccc(S(=O)(=O)N2CCCc3ccccc32)cc1	1%	?
c1ccc2sc(SSc3nc4ccccc4s3)nc2c1	7%[25.2 µM]	.
Cc1ccc(C)c(Cn2c(=O)n(CCC(=O)NCc3ccc4c(c3)OCO4)c(=O)c3sccc32)c1	-12%	?
COc1ccc(C(=O)c2cn(Cc3cccc(C)c3)c3cc4c(cc3c2=O)OCCO4)cc1OC	-26%	?
COc1ccc(Cn2ccc3nc(C)c(C(=O)N4CCN(c5ccccc5)CC4)cc3c2=O)cc1	-1%	-1%
Cc1ccc(NC(=O)c2ccc(N(Cc3ccccc3)S(C)(=O)=O)cc2)cc1	-19%	?
Cc1cc2c(cc1S(=O)(=O)N1CCC(C(N)=O)CC1)OCC(=O)N2	7%	0%
CC[C@@H]1C(=O)N(C)c2cnc(Nc3ccc(C(=O)NC4CCN(C)CC4)cc3OC)nc2N1C1CCCC1	-11%	.
CCCCCn1c(CCNC(=O)c2cccc(C)c2)nc2ccccc21	-30%	?
CC(C)C(NS(=O)(=O)c1ccc2c(c1)oc(=O)n2C)C(=O)N1CCN(c2cccc(Cl)c2)CC1 (stereo not given)	-30%	-22%
CCCCN(CCCNC(=O)c1cc(Nc2ccc(OC)cc2OC)nc2ccccc12)Cc1ccccc1	-21%	?
Nc1nc(N)c(S(=O)(=O)c2ccccc2)c(Nc2ccc(F)cc2)n1	-24%	-25%
Cc1ccccc1NS(=O)(=O)c1nnc(NC(=O)c2ccc(Cl)cc2)s1	-6%	-11%
Cc1ccc(CCNC(=O)c2ccc(CS(=O)(=O)Cc3ccccc3F)o2)cc1	0%	?
COc1ccc(-c2nc(CN3CCC(C(=O)NCc4ccc(C)cc4)CC3)c(C)o2)cc1OC	-30%	-13%
Cc1ccc(Nc2nc3ccccc3c3nnc(C)n23)cc1Cl	-3%	-5%
CC1=C(C(=O)Nc2ccccc2C)C(c2ccc[nH]2)n2ncnc2N1 (stereo not given)	7%	-13%
O=C1CN(C(=O)c2ccccc2)C(c2ccc(F)cc2)c2cc(Br)ccc2N1 (stereo not given)	-27%	?
Fc1ccccc1N1CCN(c2ncnc3onc(-c4cccc(Cl)c4)c23)CC1	-29%	-18%
